# Compound activity deposited in PubChem by ICCB-Longwood Screening Facility, Harvard Medical School.
# Bm FixLJ act: activators of Burkholderia fixLJ two-component system; B. multivorans fixK-promoter GFP reporter, 18 h; hits give high values; z-score (concentration not given with the values); 29,000 compounds, 0.3% hits; AID 1918990;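 active = replicate mean overnight rise in green fluorescent reporter signal, 3 or more SD over negative controls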;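 also: score is relative to vehicle wells of the plate; 300 nL library stock went into each well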
# The depositor's hits bear a star; & = joins results of further samples. Not all compounds are listed. The share of hits here may be higher or lower than overall.
SMILES,Bm FixLJ act
Cn1c(=O)n(-c2ccc3c(c2)OCO3)c2nc(-c3ccc(Cl)cc3)nc(C(N)=O)c21,-1.6
COc1ccc(NC(=O)Cn2cnc3sc(C)c(S(=O)(=O)N4CCN(c5ccccc5OC)CC4)c3c2=O)cc1OC,-0.77
CSc1nn(Cc2ccc(Cl)cc2)c(N(C(C)=O)C(C)=O)c1S(=O)(=O)c1ccccc1,-0.38
COc1cc(NC(=O)CCCOc2cc(=O)n(C)c3ccccc23)cc(OC)c1OC,0.1
COc1ccccc1CNc1ncnc2onc(-c3ccc(Cl)cc3)c12,0.73
CCOc1ccc(/C=C/c2nc(C#N)c(N(C)C)o2)cc1,1.4
CSCc1noc(CNS(=O)(=O)c2cc(-c3cc(C)[nH]n3)sc2C)n1,-2.2
O=C(Cc1ccc(Cl)cc1)Nc1ccc2oc(-c3ccc(F)cc3)nc2c1,-4.2
COc1cc(Cl)ccc1OC(=O)c1cn(-c2ccccc2OC)c(=O)c2ccccc12,-0.22
CC(C)(C)C(=O)NC1(C(F)(F)F)C(=O)Nc2c1c(=O)[nH]c(=O)n2-c1ccccc1 (configuration not stated),-0.99
CCCC(=O)Oc1c(Sc2ccc(Cl)cc2)c(C)nn1-c1ccccc1,-3.3
COc1cccc(NC(=O)C2CC(=O)N(c3ccc(Br)cc3)C2)c1 (configuration not stated),-1.1
CCOc1ccc(OCC)c(S(=O)(=O)N2CCN(c3cccc(C)c3C)CC2)c1,3.4*
CCc1ccc(NC(=O)c2ccc(NS(=O)(=O)c3c(C)noc3C)cc2)cc1,-1
CN1C(=O)C2CCCC1CN(C(=O)c1ccc(Cl)cn1)C2 (configuration not stated),0.45
COc1ccc(C(NC(=O)c2cccc(O)c2)C2CC(O)C2)cn1 (configuration not stated),-0.98
Cc1oc(-c2ccccc2Cl)nc1CS(=O)CC(=O)NCc1ccc(Cl)cc1 (configuration not stated),-2.5
COc1ccc(NC(=O)c2c(C)oc3ccc(O)c(CN4CCCC(C)C4)c23)cc1Cl (configuration not stated),-2.1
CCOCCCNC(=O)C(NC(=O)C1CCC(C)CC1)C(C)C (configuration not stated),-0.69
CCCC(=O)n1nc(-c2cccnc2)nc1NCc1ccc(OC)cc1,-2.1
O=C(NCCc1cccs1)c1ccc(Cn2c(SCc3cccc(F)c3)nc3cccnc32)cc1,-0.35
CCc1ccc(NC(=O)C2=C(C)C(=O)OC23CCCCC3)cc1,0.08
COc1ccc(NC(=O)C(CC(C)C)NS(=O)(=O)c2ccc3c(c2)oc(=O)n3C)cc1Cl (configuration not stated),1.5
COc1cccc(NC(=O)CN2C(=O)CC(c3ccco3)Sc3ccccc32)c1 (configuration not stated),-0.46
Cn1c(=O)c2c(n3ncnc13)NC(=O)CC2c1cccc(F)c1 (configuration not stated),-2.4
COc1ccc(Cl)cc1C(C(=O)O)N1CCCN(C(C)=O)CC1 (configuration not stated),-1.1
COc1ccc(OC)c(NC(=O)/C=C/c2ccc(C)o2)c1,-3.5
O=C1CN(CC(=O)N2CCCC(c3nccn3Cc3ccccn3)C2)CCN1 (configuration not stated),0.45
O=C(Nc1ccc(F)cc1)[C@@H](c1ccccc1)N1Cc2ccccc2C1=O,-1.8
COc1cccc(NC(=O)Cn2c(=O)n(Cc3ccco3)c(=O)c3cc(OC)c(OC)cc32)c1,-1.2
CCN(CC)C(CNC(=O)c1cc(C(F)(F)F)nn1C)c1ccco1 (configuration not stated),-0.34
Cc1ccccc1-n1c(/C=C/c2c(C)n(C)c3ccccc23)nc2ccccc2c1=O,-1.7
COc1ccc(N2CCN(C(=O)c3ccc(Nc4nc5ccccc5n5nnnc45)cc3)CC2)cc1,0.26
O=C(NCCc1nc2ccccc2n1Cc1ccccc1F)c1ccc(F)cc1,-0.49
COc1ccc(Br)cc1C1Sc2ccccc2NC2=C1C(=O)c1ccccc12 (configuration not stated),0.04
Cc1sc2ncn(CC(=O)N(C)c3cccc(C(F)(F)F)c3)c(=O)c2c1S(=O)(=O)N1CCN(c2ncccn2)CC1,-0.56
Cc1ccc2c(c1)sc1nc(-c3cc4ccccc4oc3=O)cn12,1.2
CC(C)OC(C)C(=O)N1CCN(Cc2ccccc2CO)CC1 (configuration not stated),-1.2
O=C1c2[nH]nc(-c3ccccc3O)c2C(c2cccc(O)c2)N1Cc1ccncc1 (configuration not stated),-0.48
COc1nc2c(cc1CNC1CCCC1)C(=O)N(C1CCCC1)C2,-0.2
COCCCn1c(=N)c(C(=O)NCc2ccco2)cc2c(=O)n3cccc(C)c3nc21,-3.8
CCCCn1nc(NC(=O)c2cccc(Cl)c2)c2cc3ccccc3nc21,0.6
CCOC(=O)c1cc(OC(=O)c2cccc(F)c2)n(-c2ccccc2)n1,-1.9
COc1ccc2c(c1)C(C(=O)N1CCC(Cn3cccn3)CC1)CC(=O)N2 (configuration not stated),-0.46
COc1ccnc(CS(=O)c2nc3ccc(OC(F)F)cc3[nH]2)c1OC (configuration not stated),-1.2&-0.99
Cc1cc(=O)[nH]c(SC(C)C(=O)N2CCC(Cc3noc(C)n3)CC2)n1 (configuration not stated),-2.6
CCC(=O)N1CCc2[nH]cnc2C12CCN(C(=O)CCn1cccn1)CC2,0.67
CCOC(=O)c1c(C)c(-c2ccccc2)n(CC(=O)NCc2cccc(OC)c2)c1C,-1.2
COc1cccc(CC2CN(C(=O)c3ccc(-c4ccn[nH]4)cc3)CCO2)c1 (configuration not stated),-0.51
COc1ccccc1CNC(=O)COc1cc(=O)n(C)c2ccccc12,-1.5
COc1cc(NC(=O)Cn2cnc3c2c(=O)n(C)c(=O)n3C)c(OC)cc1Cl,-1.2
CCC(=O)N1CCN(Cc2cnn(C(C)C)c2)C2CS(=O)(=O)CC21 (configuration not stated),0.08
CCOc1ccc(-c2ccnc(NCCc3nc(C)cs3)n2)cc1C(=O)O,-1.8
CCc1ccc2nc(N3CCC(C(=O)O)CC3)sc2c1,-1.1
CCC(=O)Nc1cc(Cl)ccc1C(=O)NCc1c(C)noc1C,0.79
O=C(CSc1nc(-c2ccc(F)cc2)cc(C(F)(F)F)n1)NCCc1ccccc1,-0.21
CCC(=O)N1CCc2cc(Br)cc(S(=O)(=O)N3CCCC(C(=O)N(C)c4ccc(Br)cc4)C3)c21 (configuration not stated),-0.86
Cc1cc(C)cc(OCC(=O)Nc2ccc(Cl)cc2C(=O)c2ccccc2)c1,0.74
COc1ccc(C2CN(c3cccc(C#N)n3)C3C4CCN(CC4)C23)cc1 (configuration not stated),0.1
O=C(Cn1ncc2c3ccccc3n(Cc3cccc(Cl)c3)c2c1=O)N1CCCCC1,2

# The last 6 entries of the part above lead into the next:
SMILES,Bm FixLJ act
CCC(=O)Nc1cc(Cl)ccc1C(=O)NCc1c(C)noc1C,0.79
O=C(CSc1nc(-c2ccc(F)cc2)cc(C(F)(F)F)n1)NCCc1ccccc1,-0.21
CCC(=O)N1CCc2cc(Br)cc(S(=O)(=O)N3CCCC(C(=O)N(C)c4ccc(Br)cc4)C3)c21 (configuration not stated),-0.86
Cc1cc(C)cc(OCC(=O)Nc2ccc(Cl)cc2C(=O)c2ccccc2)c1,0.74
COc1ccc(C2CN(c3cccc(C#N)n3)C3C4CCN(CC4)C23)cc1 (configuration not stated),0.1
O=C(Cn1ncc2c3ccccc3n(Cc3cccc(Cl)c3)c2c1=O)N1CCCCC1,2
CCC(=O)N1c2ccc(S(=O)(=O)NCCc3ccccc3)cc2CC1C (configuration not stated),-1.5
COC(=O)c1ccc(NC(=O)CCn2cnnn2)c(C)c1,-1.2
COc1ccc2[nH]c(C(=O)N3CCC(Oc4cccc(F)c4)CC3)cc2c1,1.9
CC(=O)c1cccc(S(=O)(=O)N2CCN(c3ccccc3F)CC2)c1,-1.6
COc1ccc(NC(=O)CSC2=Nc3ccccc3C3=NC(CC(=O)NCc4ccccc4OC)C(=O)N23)cc1Cl (configuration not stated),-0.49
CCCCC12CN3CC(C)(CN(C1)C3c1cc(Br)ccc1O)C2=O (configuration not stated),-0.29
COC(=O)c1ccccc1NC(=O)[C@H]1O[C@@H]2OC(C)(C)O[C@@H]2[C@H]2OC(C)(C)O[C@H]21,-1.6
N#C/C(=C\c1ccc(-c2ccccc2C(=O)O)o1)c1nc2ccccc2[nH]1,-1.6
O=C(c1ccc2c(c1)N(Cc1ccc(Cl)cc1)C(=O)c1ccccc1S2(=O)=O)N1CCc2ccccc21,1.1
CCOc1ccc2nc(N3CCCC(C(=O)NCCc4ccc(Cl)cc4)C3)sc2c1 (configuration not stated),-2.2
CCCOC(=O)C(C)n1nnc2sc(-c3ccccc3)cc2c1=O (configuration not stated),-1.1
Cc1cccc(OCCOCCn2c(-c3ccc(Cl)cc3)nc3ccccc3c2=O)c1C,-1.2
COCc1nc2ccccc2n1CCOc1cccc(C)c1,-1.3
CCc1ccc(-n2nc(CO)c(C(=O)NCc3ccccn3)n2)cc1,-0.39
COc1ccc(NC(=O)c2cc3c(-c4ccccc4F)nn(C)c3s2)c(OC)c1,1.2
Cc1c2cnn(CC(=O)NCCc3ccccc3)c(=O)c2c(C)n1Cc1ccccc1,-0.24
CCOc1ccc(NC(=O)Cn2cc(C(=O)c3ccc(OC)cc3)c(=O)c3cc4c(cc32)OCO4)cc1,-0.18
COc1cccc(NC(=O)c2sc3nc(C)c(C(=O)Nc4ccc(C)cc4C)c(-c4ccco4)c3c2N)c1,-3.9
Clc1ccc(CNc2cc(-c3ccccc3)nc3nncn23)cc1,-2.2
CCN(CC)C(=O)CN1CCC(O)[C@]2(CCCN(C(=O)C3CC=CC3)C2)C1 (some centres not stated),1.3
CN(C)c1ccc(/C=C/c2nc(-c3ccccc3O)n(-c3ccccc3)n2)cc1,-0.88
COCCc1nc(CNS(=O)(=O)c2cc(Cl)c(OC)cc2Cl)no1,-2.3
COc1ccc(NC(=O)Cn2cc(C(=O)C3CCCCC3)c3ccccc32)cc1,-1.9
CCOC(=O)C1CCN(c2nc3c(S(=O)(=O)c4ccc(C)c(C)c4)nnn3c3ccc(Cl)cc23)CC1,1.1
CN1C(=O)C(CC(=O)Nc2ccc[nH]c2=O)(Cc2ccccc2)c2ccccc21 (configuration not stated),-1.6
O=C(O)c1cc(O)c2c(c1)[C@@H]([C@H]1c3cc(C(=O)O)cc(O)c3C(=O)c3c(O[C@H]4O[C@H](CO)[C@@H](O)[C@H](O)[C@H]4O)cccc31)c1cccc(O[C@H]3O[C@H](CO)[C@@H](O)[C@H](O)[C@H]3O)c1C2=O,0.14
CN(CC(=O)N1CC(O)C(Cc2ccc3ccccc3n2)C1)C(N)=O (configuration not stated),-2
CCc1ccc(N(CC)C(=O)c2ccc3c(=O)n4c(nc3c2)CCCCC4)cc1,-0.16
Cc1cccc(NC(=O)Cn2cc(C(=O)C3CCCCC3)c3ccccc32)c1,1.1
Cc1ccccc1CNCCSc1nnnn1C,-2
N#Cc1ccccc1NC(=O)CSc1ncn[nH]1,0.36
CCOc1ccccc1CNC(=O)c1ccc(Cn2c(SCc3ccccc3)nc3cccnc32)cc1,-1
Cc1ccc(-c2csc(-c3c(N)c(C(=O)c4ccc5c(c4)OCO5)n4ccccc34)n2)cc1,-1
COc1ccc(NC(=O)CCc2c(C)nc3c(-c4ccccc4)c(C)nn3c2C)cc1Cl,0.1
OC(CCN1CCCC1)(c1ccccc1)C1CCCCC1 (configuration not stated),-1.3
CCOc1ccccc1NC(=O)c1ccc2c(Cl)c3c(nc2c1)CCC3,0.02
Cc1cc(C)n(CCNc2cc(C3CCOC3)nc(N)n2)n1 (configuration not stated),-0.68
Cn1c2ccccc2c2c(C(=O)N3CCN(c4cccc(C(F)(F)F)c4)CC3)cn(C3CCCCC3)c(=O)c21,1.1
CCOc1cc(C2c3c(-c4cc(C)ccc4O)n[nH]c3C(=O)N2CCCOC(C)C)ccc1O (configuration not stated),-0.64
CCOc1ccc(-n2c(=O)c3c(C)c(C)sc3n(CC(=O)N(CC)Cc3ccccc3)c2=O)cc1,-1.9
Cc1cc2nc(-c3ccccc3)cc(NCC3CC(=O)N(C4CC4)C3)n2n1 (configuration not stated),-0.3
Clc1ccc(Nc2nc(-c3ccccc3)c3cc(Cl)ccc3n2)cc1,0.17
COc1ccc2c(C)c(CCC(=O)NCCc3ccc(Cl)cc3)c(=O)oc2c1,-3.4
CCN(CCCNC(=O)c1cc(Nc2ccc(OC)cc2OC)nc2ccccc12)c1cccc(C)c1,1.5
Cc1ccccc1-c1nc(CS(=O)(=O)CC(=O)Nc2cc(Cl)cc(Cl)c2)c(C)o1,1.6

# The list goes on (2 carried over from the part before).
SMILES,Bm FixLJ act
CCN(CCCNC(=O)c1cc(Nc2ccc(OC)cc2OC)nc2ccccc12)c1cccc(C)c1,1.5
Cc1ccccc1-c1nc(CS(=O)(=O)CC(=O)Nc2cc(Cl)cc(Cl)c2)c(C)o1,1.6
CCN(CC)S(=O)(=O)c1ccc2c(c1)N(CC(=O)NCc1ccccc1)C(=O)CS2,-0.33
Cc1ccc(NC(=O)Cn2cc(S(=O)(=O)c3ccccc3)c(=O)c3cc4c(cc32)OCO4)cc1,0.68
O=C(NCC1(O)CCCCC1)Nc1cccc(-c2cnc[nH]2)c1,-1.4
CCCCC1CN(c2cccc(-c3ccccc3)c2)C(=O)CN1C(=O)CCCN (configuration not stated),-0.92
O=C(CN1C(=O)COc2ccc(S(=O)(=O)N3CCOCC3)cc21)N1CCN(c2cccc(C(F)(F)F)c2)CC1,-0.34
COc1ccccc1NC(=O)CCN1CCC(C(N)=O)CC1,0
CCc1nn2c(-c3ccco3)ccnc2c1-c1ccccc1,-7.3

# Among those listed so far, these have bromine.
SMILES,Bm FixLJ act
COc1cccc(NC(=O)C2CC(=O)N(c3ccc(Br)cc3)C2)c1 (configuration not stated),-1.1
COc1ccc(Br)cc1C1Sc2ccccc2NC2=C1C(=O)c1ccccc12 (configuration not stated),0.04
CCC(=O)N1CCc2cc(Br)cc(S(=O)(=O)N3CCCC(C(=O)N(C)c4ccc(Br)cc4)C3)c21 (configuration not stated),-0.86
CCCCC12CN3CC(C)(CN(C1)C3c1cc(Br)ccc1O)C2=O (configuration not stated),-0.29
